Rango complex inh: inhibitors of Rango-importin beta complex formation | Q14974 | Rango CFP/YFP FRET sensor + importin beta, 45 min | Potency, µM (titrated, usually from 92.2 µM), inactives show at the highest dose inhibition of complex formation | hit rate 0.031% among 340,000; active = rising FRET ratio curve, often small or poorly fitted; inconclusive = mostly compound fluorescence or quenching in the first reads; inactive = flat curves in all reads;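 note: potency is the fitted concentration of half-maximal effect; 0% = DMSO wells and 100% = buffer wells lacking importin beta; nearly all actives have a fitted effect of over 15% in size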
Target sequence (Q14974 whole entry, looked up): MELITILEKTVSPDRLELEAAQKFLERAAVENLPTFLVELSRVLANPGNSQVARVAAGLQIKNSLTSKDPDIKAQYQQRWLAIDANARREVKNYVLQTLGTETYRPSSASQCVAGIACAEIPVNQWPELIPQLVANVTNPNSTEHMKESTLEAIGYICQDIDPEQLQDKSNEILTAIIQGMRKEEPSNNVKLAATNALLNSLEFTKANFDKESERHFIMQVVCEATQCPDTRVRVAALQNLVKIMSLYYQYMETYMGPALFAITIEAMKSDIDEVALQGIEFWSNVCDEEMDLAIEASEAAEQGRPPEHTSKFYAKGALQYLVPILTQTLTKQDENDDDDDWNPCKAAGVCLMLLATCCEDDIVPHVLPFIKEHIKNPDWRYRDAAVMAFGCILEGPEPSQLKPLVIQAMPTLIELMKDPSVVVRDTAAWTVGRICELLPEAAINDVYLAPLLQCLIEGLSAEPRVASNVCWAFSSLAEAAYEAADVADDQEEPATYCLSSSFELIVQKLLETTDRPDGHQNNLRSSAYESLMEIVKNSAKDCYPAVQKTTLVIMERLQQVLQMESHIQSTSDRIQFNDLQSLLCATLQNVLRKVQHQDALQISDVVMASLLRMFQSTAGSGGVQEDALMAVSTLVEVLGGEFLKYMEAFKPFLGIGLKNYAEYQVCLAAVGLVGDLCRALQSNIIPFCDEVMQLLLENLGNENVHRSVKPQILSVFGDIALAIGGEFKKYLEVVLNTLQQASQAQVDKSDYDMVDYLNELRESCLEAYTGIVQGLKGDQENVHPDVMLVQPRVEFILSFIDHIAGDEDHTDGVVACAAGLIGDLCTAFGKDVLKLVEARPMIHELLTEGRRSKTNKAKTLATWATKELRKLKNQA
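FRET biosensor (snurportin 1 IBB flanked by EYFP and cerulean), 50 nM, with compound 5 min, then 0.125 microM importin beta in PBS, 1 mM DTT, 0.02% Tween-20, 0.1% BSA. CFP/YFP ratio read after 45 min at room temperature; pre-read flags interference.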
Rango dissoc inh: inhibitors of RanGTP-induced Rango-importin beta complex dissociation | O95149+P62826 | Biochemical FRET Rango-importin beta, RanGTP-induced dissociation | Potency, µM (top dose mostly 46.1 µM), without a hit: at the top dose activity change, negative = inhibition | hit rate 0.071% among 340,000 | AID 540253; active means falling FRET ratio curve, often poorly fitted, with flat reads before Ran was added; inconclusive means other falling curves, or compound fluorescence or quenching; inactive means flat or rising ratio curve;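 note: potency is the fitted concentration of half-maximal effect; % of control where 0% means no effect; nearly all actives have a fitted effect of over 45% in size; -100% = wells without RanGTP and RCC1; the record marks most hits as doubtful in a second field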
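Recombinant Rango FRET biosensor (EYFP–snurportin 1 IBB–cerulean CFP10) at 0.1 uM premixed with 0.25 uM importin beta in PBS, 1 mM DTT, 0.02% Tween-20, 0.1% BSA. Compound added 5 min; RanGTP-RCC1 (0.6 uM Ran, 2 mM GTP, 0.2 uM RCC1) then triggers release, read at 45 min.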
miR-21 reporter: raises the signal of a miR-21 reporter; HeLa miR-21 FLuc reporter, luciferase, 48 h; Potency, µM (doses to about 38.3 µM), inactives show top-dose reporter change, positive = more light; 340,000 tested, under 10 active; active = well fitted rising curve with a large enough effect; inconclusive = small, poorly fitted or top-dose-only effect; inactive = no such curve, though single readings can be large or run the other way;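 note: % of control where 0% means no effect; miR-21 action dims this reporter so a rising signal means less miR-21 action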
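HeLa cells endogenously expressing miR-21, stably carrying CMV-driven firefly luciferase with a downstream miR-21 binding site, 2000 cells/well. Titrations up to approximately 40 uM, 48 hours; luciferase luminescence read.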
GLA inh pH 4.5: blocks human alpha-galactosidase A at pH 4.5. 230,000 tested, under 10 active. purified enzyme, 4-MU-alpha-Gal fluorescence, pH 4.5. activity change, negative = inhibition, % at 105 µM; inconclusive = small, poorly fitted or top-dose-only inhibition, or a rising curve; inactive = flat fitted curve, though single readings scatter; no compound was filed as active;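 note: 0% = full activity with enzyme and -100% = basal without enzyme; dose as in the result columns while the protocol names 77 µM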
The depositor's hits bear a star; ? = inconclusive; / = not tested or not shown. This is a subset. The share of hits here may be higher or lower than overall.

item | structure | miR-21 reporter | Rango dissoc inh | GLA inh pH 4.5 | Rango complex inh
1 | Cc1ccc2nc3c(cc(C(=O)NCCc4ccccc4)c(=N)n3CC3CCCO3)c(=O)n2c1 (stereo not given) | 11.5% | ? | / | ?
2 | CC(=O)Nc1c(C(=O)N2CCCCCC2)cnn1-c1ccccc1Cl | -8.2% | -1.7% | 3.3 | -3.0%
3 | O=C(Nc1ccccc1)c1ccccc1OCC(O)CN1C(=O)c2ccccc2S1(=O)=O (stereo not given) | -0.5% | 0.3% | -5.7 | -0.1%
4 | CC(C)(C)NC(=O)NC(=O)COC(=O)C1=COCCO1 | -7.2% | 12.7% | 4.7 | -4.2%
5 | CCNc1nc(N2CCOCC2)nc(N(c2ccccc2)c2ccccc2)n1 | -3.6% | -0.5% | -10.6 | -1.5%
6 | CCS(=O)(=O)N1Cc2ccccc2CC1C(=O)Nc1cccc(C)c1 (stereo not given) | -48.8% | -0.2% | 4.8 | 1.5%
7 | CC(C)(C)C(=O)Nc1ccc(S(=O)(=O)Nc2ccccn2)cc1 | -4.8% | 15.5% | 5.8 | -2.0%
8 | Cc1cccc(C)c1NC(=O)CN(C)C(=O)CC1OC(=O)c2ccccc21 (stereo not given) | / | 18.2% | / | 2.4%
9 | CCC(C)NC(=O)Cn1c(=O)n(-c2ccc(OC)cc2)c(=O)c2ccc(C(=O)NCc3ccc(C)cc3)cc21 (stereo not given) | -0.1% | 1.5% | 8.2 | 6.1%
10 | CCCNC(=O)Cn1c(=O)cnc2ccccc21 | -6.2% | -5.5% | -6.3 | -1.3%
11 | COc1ccccc1N1CCN(C(=O)c2cc3c(=O)n4cccc(C)c4nc3s2)CC1 | -11.6% | -20.4% | / | 0.2%
12 | C=CCn1cnc2c(c1=O)c1nc3ccccc3nc1n2-c1ccccc1 | -1.8% | / | 9.2 | /
13 | Cc1ccccc1C(=O)NC(=S)Nc1ccc(Cc2ccncc2)cc1 | -5.8% | 2.6% | 8.1 | -0.4%
14 | COc1ccc(-c2ccc(OC)cc2C(=O)O)cc1 | -0.9% | 0.6% | -8.2 | 0.2%
15 | Cn1ncc(N=Cc2ccccc2O)c1C(=O)N1CCOCC1 | 0.8% | 8.9% | 6.4 | 4.8%
16 | O=C(COc1ccc2c(-c3ccccc3)cc(=O)oc2c1)NCc1ccccn1 | -0.3% | -2.4% | / | 3.6%
17 | O=C1C2C3C=CC(C3)C2C(=O)N1c1ccc2ccccc2c1 (stereo not given) | -11.9% | 4.3% | / | -2.1%
18 | CC(C)CN(C(=O)COC(=O)c1ccc(C#N)cc1)C1CCS(=O)(=O)C1 (stereo not given) | / | -18.6% | / | -3.9%
19 | COCCCC1CCN(Cc2nc(-c3ccccc3)no2)CC1 | -21.6% | -13.3% | -7.5 | -1.7%
20 | CN1C(CC(=O)Nc2ccc(Br)cc2)c2ccccc2CC1(C)C (stereo not given) | 20.9% | 0.7% | -0.9 | 0.6%
21 | Cc1cccc(NC(=O)c2ccc([N+](=O)[O-])s2)n1 | 8.3% | 8.7% | / | 2.8%
22 | Nc1nccc(SCc2ccc(Cl)cc2Cl)n1 | / | 26.8% | / | -1.4%
23 | Cc1ccc(-c2nnn(CC(=O)N(CC3CCCO3)C(C(=O)NC3CCCCC3)c3ccc(F)cc3)n2)o1 (stereo not given) | -10.3% | 18.2% | 2.3 | 0.6%
24 | CC(C)c1ccc(OCC(=O)NNC(=S)NC(=O)c2ccco2)c(Br)c1 | -0.9% | -3.7% | / | 4.9%
25 | COc1cccc(S(=O)(=O)NCc2ccc(C(=O)NCc3ccccn3)cc2)c1 | 3.6% | 12.5% | / | ?
26 | Cc1cc(C(=O)NN=Cc2c(C)[nH]c3ccccc23)c(C)o1 | / | 2.9% | / | 1.2%
27 | Cc1cccc(CSC2=NCCN2C(=O)c2ccc(S(=O)(=O)N(C)C)cc2)c1 | 12.9% | -20.8% | 1.9 | -0.1%
28 | CN1CCN(Cc2cc(COCc3ccccc3)c3cccnc3c2O)CC1 | 14.9% | -3.8% | -10.8 | 3.6%
29 | CC(=O)Nc1ccc(SCC(=O)Nc2ccccc2Oc2ccccc2)cc1 | -4.7% | -11.1% | -1.7 | ?
30 | O=C(C1CCN(S(=O)(=O)N2CCC3(CC2)OCCO3)CC1)N1CCOCC1 | -0.4% | 7.8% | 2.4 | 3.5%
31 | CN(C)/C=N/c1nc(-c2ccc3ccccc3c2)cs1 | -60.5% | 0.1% | / | 0.4%
32 | Cc1ccc(C(=O)COc2ccccc2-c2ccccc2)cc1 | -8.1% | 2.5% | 2.8 | -0.8%
33 | CC(C)(C)n1nnnc1C(c1cccc(C#N)c1)N1CCCc2ccccc21 (stereo not given) | 0.5% | 19.2% | -8.6 | -3.7%
34 | COc1ccc(NC(=O)COC(=O)CCNC(=O)c2ccco2)cc1Cl | / | 2.7% | / | 0.7%
35 | COc1ccccc1C1=NOC(Cn2c(NCCCO)nc3c2c(=O)n(C)c(=O)n3C)C1 (stereo not given) | 0.1% | 10.5% | -14.2 | 2.1%
36 | O=C(CCN1C(=O)/C(=C/c2ccccc2F)SC1=S)NCCCN1CCOCC1 | -5.1% | 3.0% | / | -0.3%
37 | Cc1ccc(NC(=O)CSc2nnc(Cn3c(=O)sc4ccccc43)n2C)cc1 | -2.1% | 15.4% | 4.2 | 1.9%
38 | Cc1ccc(C)c(NC(=O)C2CC(O)CN2C(=O)OC(C)(C)C)c1 (stereo not given) | -0.7% | 0.6% | -5.1 | -2.7%
39 | CSCc1ccc(C(=O)NCc2ccccc2)cc1 | -42.9% | 7.1% | -1.5 | 3.6%
40 | O=[N+]([O-])c1cccc(NC(=S)N2CCCC2)c1 | -7.3% | -3.1% | / | ?
41 | COc1ccc(/C=C(\NC(=O)c2ccccc2)C(=O)N2CCC(C)CC2)cc1 | / | -4.9% | / | -2.9%
42 | Cc1c(-c2ccccc2)sc2nc[nH]c(=S)c12 | -4.0% | -1.4% | -2.8 | -8.9%
43 | COc1ccc(OC)c(NC(=O)CSc2ccc3nnc(-c4ccccn4)n3n2)c1 | 0.6% | -17.4% | / | -1.9%
44 | COc1ccc(CCN2CC(C(=O)Nc3nnc(Cc4ccccc4)s3)CC2=O)cc1OC (stereo not given) | / | 17.8% | / | 0.1%
45 | O=[N+]([O-])c1ccc(Cl)cc1N1CCOCC1 | -6.3% | -22.0% | -4.5 | 3.6%
46 | O=C(N/N=C\c1ccc(CNS(=O)(=O)c2ccccc2)o1)C(=O)Nc1ccc(F)cc1 | -25.9% | 18.1% | -6.7 | -2.6%
47 | COc1ccc(N2CCN(c3cc(C)c4cccc(C)c4n3)CC2)cc1 | 2.3% | 17.7% | -0.2 | 0.9%
48 | Cc1cccn2c(=O)c3cc(S(=O)(=O)c4ccc(F)cc4)c(=N)n(Cc4ccco4)c3nc12 | -2.5% | ? | -3.1 | ?
49 | C=CCN(c1ccccc1)S(=O)(=O)c1cc2c(cc1C)N(C)CCO2 | 18.3% | -1.3% | / | 1.3%
50 | OC1CCCN(c2c3c(nc4cc(-c5cccc(Cl)c5)nn24)CCC3)C1 (stereo not given) | -20.7% | 37.6% | -19.6 | 1.3%
51 | COc1ccc(-n2nnc3c(=O)n(CC(=O)Nc4cc(C)on4)cnc32)cc1 | -1.6% | -5.6% | 1.0 | -1.6%
52 | CCN(CC)Cc1ccccn1 | -1.5% | -14.5% | 1.7 | 3.8%
53 | CCCCNC(=O)C1CCN(Cc2ccccn2)CC1 | -0.3% | -12.6% | 1.4 | -1.9%
54 | CCOC(=O)C1(Nc2nccs2)Sc2ccccc2NC1=O (stereo not given) | 20.6% | -0.7% | 1.1 | 1.4%
55 | Cc1c(O)ccc(C(=O)CN2CCN(c3ccccc3F)CC2)c1O | 1.9% | -1.8% | / | 4.0%
56 | Cc1ccc(CC2CC(=O)N(C(Cc3ccccc3)C(=O)O)C2=O)cc1 (stereo not given) | 1.6% | -11.7% | -2.4 | 0.0%
57 | COc1ccc(/C=N\NC(=O)c2cc3c(ccc4ccccc43)o2)cc1O | 13.4% | -4.9% | / | -2.2%
58 | C/C(=C\C(=O)c1cccnc1)Nc1ccc(O)cc1 | -15.2% | 11.7% | -15.1 | -2.3%
59 | O=C(Nc1cc(Cl)cc(Cl)c1)c1cccnc1 | -5.6% | 6.6% | / | 1.5%
60 | O=C(c1cc2ccccc2c(=O)o1)N1CCCc2ccccc21 | -13.1% | 1.5% | -5.7 | -0.5%

Later entries:
item | structure | miR-21 reporter | Rango dissoc inh | GLA inh pH 4.5 | Rango complex inh
61 | O=[N+]([O-])c1ccccc1S(=O)(=O)N1CCN(Cc2ccsc2)CC1 | 5.5% | -13.3% | -1.7 | 2.1%
62 | Cc1ccc(-c2nnc3ccc(SC(C)C(=O)O)nn23)cc1 (stereo not given) | -3.1% | 8.0% | 7.4 | 3.2%
63 | CCc1ccc(C(=O)NN=C2CCCCCC2)s1 | -24.9% | -8.6% | / | -0.6%
64 | COc1cccc(NC(=O)NCCc2ccc(Cl)cc2)c1 | -15.1% | 16.6% | 2.1 | ?
65 | O=C(/C=C/c1c(Cl)cccc1Cl)N1CCOCC1 | -28.6% | 18.0% | / | 1.1%
66 | CCOC(=O)c1ccc(CS(=O)c2ccc(Cl)cc2)o1 (stereo not given) | -30.6% | 0.7% | 4.2 | 7.2%
67 | Cc1noc(C)c1C(=O)Nc1nc2ccccc2s1 | / | 6.6% | / | -0.5%
68 | O=C(CCS(=O)(=O)c1ccc(Br)s1)N1CCc2ccccc21 | -2.7% | 32.7% | -1.2 | 1.9%
69 | Cc1ccc(N(C(C)C(=O)Nc2ccc3c(c2)OCO3)S(C)(=O)=O)cc1 (stereo not given) | -3.1% | 7.4% | -4.8 | -5.1%
70 | O=C(NC(=S)NCc1nc2ccccc2[nH]1)c1ccccc1F | -45.2% | 1.8% | 7.5 | -0.4%
71 | CCN(CC)C(=O)C1CCCN(Cc2nc(-c3cnccn3)no2)C1 (stereo not given) | -0.3% | 0.2% | -8.2 | -2.1%
72 | O=C(CCSc1ccc(F)cc1)NNC(=O)c1ccc([N+](=O)[O-])cc1 | / | -6.0% | / | 2.5%
73 | Cc1ccc(Nc2nc(N)nc(CN3CCN(Cc4ccc5c(c4)OCO5)CC3)n2)cc1C | -1.5% | -6.9% | 4.4 | -1.2%
74 | CCCOc1ccc(C(=O)N2CCN(Cc3ccc4c(c3)OCO4)CC2)cc1 | 22.6% | 5.9% | / | -0.5%
75 | O=C(Nc1ccccc1N1CCOCC1)c1cccc(NS(=O)(=O)c2ccc(F)c(F)c2)c1 | -0.8% | 0.9% | -15.1 | 0.8%
76 | CCc1cc2cccc(C)c2nc1SCC(=O)NNC(=O)c1ccco1 | -6.7% | -21.8% | 0.1 | 0.1%
77 | COc1ccccc1N(CC(=O)Nc1cc(S(=O)(=O)N(C)C)ccc1C)S(=O)(=O)c1cccs1 | / | 26.9% | / | -0.1%
78 | N/C(=N\OC(=O)COc1ccc2ccccc2c1)c1ccccn1 | -38.5% | 6.5% | -9.1 | -3.3%
79 | COc1ccc(S(=O)(=O)NC2CCN(Cc3ccccc3)CC2)cc1NC(C)=O | / | -0.3% | / | -2.3%
80 | CCn1c(COc2ccc(=O)n(-c3ccccc3)n2)nnc1SCc1cccc(OC)c1 | -0.3% | 9.4% | -6.1 | 3.1%
81 | O=S(=O)(Nc1ccc(-c2ccc(N3CCOCC3)nn2)cc1)c1ccc(Cl)c(Cl)c1 | / | -16.8% | / | 0.2%
82 | COc1ccc(CNC(=O)C(C)n2ccc3cc(S(=O)(=O)N4CCCCCC4)ccc32)cc1 (stereo not given) | 14.1% | -3.0% | / | -3.3%
83 | CCn1c(SCC(=O)N/N=C/c2ccccc2OCC(=O)O)nnc1-c1ccc(OC)cc1 | -1.1% | -0.6% | 2.3 | 0.0%
84 | COCCn1c(SCC(=O)N2CC(=O)Nc3ccccc32)nnc1-c1ccoc1C | -6.2% | 0.3% | 5.9 | 2.5%
85 | Cc1ccc(C(=O)Cc2ccccc2)o1 | / | -19.4% | / | -1.5%
86 | O=C1Nc2cc(Cl)c(Cl)cc2N(O)N1c1ccc(Cl)c(Cl)c1 | -8.6% | 0.9% | -10.2 | 1.5%
87 | CCOc1cc(NS(=O)(=O)c2ccccc2)c(OCC)cc1NC(=O)c1ccco1 | 3.0% | -27.9% | 2.2 | ?

Source: PubChem BioAssay (National Center for Advancing Translational Sciences (NCATS))
